PINK1 expr mod = changes PINK1 expression | PINK1 immunofluorescence, high-content cytometry, 24 h | Potency, µM (series often up to 76.6 µM), inactives show at the highest dose activation (PINK1 increase), most hits filed as activators | hit rate 0.2% among 410,000 | AID 624263; active = well fitted activation curve with a large enough effect; inconclusive = small, poorly fitted or top-dose-only effect; inactive = flat fitted curve, though single readings scatter; cell line not stated here;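 further: potency means the concentration at half of the fitted maximal effect; % of control where 0% means no effect; nearly all actives have a fitted effect of over 65% in size; a mitochondrial uncoupler was the plate control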
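Stable cell line, 250 cells/well, 12 h attachment; compounds pinned at 5 concentrations, 24 h; CCCP control. Fixed with nuclear dye, primary antibodies 12 h at 10 degrees C, secondary plus cell stain; laser-scanning cytometer read.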
Six1-Eya2 blk = Six1/Eya2 interaction inhibition. Q15475+O00167. AlphaScreen GST-Six1/His-Eya2 binding, biochemical; active compounds read low; control for the full effect not named in the record. activity change, % (no concentration beside the values). hit rate 0.56% among 360,000. AID 651725; in the data active = activity change below about -65%; inconclusive = about -30% to -65%; inactive = above about -30%; further: on the % scale 0 is the no-effect control and ±100 the full control effect
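Compounds are tested against tagged Six1 and Eya2 proteins bridged by glutathione donor and nickel acceptor beads; after a one-hour incubation at 37 °C without light, AlphaScreen emission is recorded.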
D2 agonist = activates the human D2 dopamine receptor; P14416; DiscoveRx PathHunter D2 beta-arrestin, luminescence, 90 min; 100% = 57 uM dopamine signal; activation, % (no concentration beside the values); hit rate 0.084% among 360,000; AID 624465; in the data active = activation above about 40%; inconclusive = about 15% to 40%; inactive = below about 15%; further: compound concentration not given in the record; the text of the record calls up to 30% inactive
Target sequence (P14416 whole entry, looked up): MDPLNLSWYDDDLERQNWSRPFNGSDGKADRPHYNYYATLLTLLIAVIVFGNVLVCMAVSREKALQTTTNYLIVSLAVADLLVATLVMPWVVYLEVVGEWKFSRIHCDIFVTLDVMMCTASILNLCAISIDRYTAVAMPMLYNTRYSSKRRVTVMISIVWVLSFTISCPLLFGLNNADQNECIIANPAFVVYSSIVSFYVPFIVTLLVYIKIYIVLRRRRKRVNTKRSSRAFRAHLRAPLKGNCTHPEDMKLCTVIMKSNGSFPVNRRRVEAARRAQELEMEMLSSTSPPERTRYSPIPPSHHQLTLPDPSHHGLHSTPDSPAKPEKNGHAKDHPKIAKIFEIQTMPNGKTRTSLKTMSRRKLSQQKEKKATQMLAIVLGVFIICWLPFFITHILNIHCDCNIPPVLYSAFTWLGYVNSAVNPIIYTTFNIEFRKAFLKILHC
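DiscoveRx PathHunter D2 beta-arrestin cells (2,100/well) attached overnight, then compound-stimulated 90 min at 37 C in HBSS/10 mM HEPES/0.1% Tween-20 buffer; beta-galactosidase complementation read by luminescence after 1 h at ambient temperature. Dopamine 57 uM final (EC100) as control.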
D2 PAM = positive allosteric modulators of human D2 dopamine receptor; DiscoveRx D2 beta-arrestin cells, luminescence, 90 min; 100% = 57 uM dopamine signal; P14416; potentiation, % (test concentration not listed); hit rate 0.23% among 360,000; AID 624464; active = potentiation of 50% or more; inconclusive = 30% to 50%; inactive = 30% or less;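 further: compound concentration not given in the record; tested on top of an EC20 dose of dopamine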
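PathHunter beta-arrestin assay in DiscoveRx D2 cells. Compounds were added with an EC20 of dopamine (50 nM final) for 90 min at 37 deg C. Luminescence was read 1 h after detection reagent, with 57 uM dopamine as the EC100 control.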
CtBP-E1A blk = blocks the CtBP interaction with E1A; AID 651724; AlphaScreen GST-E1A/His-CtBP binding, 1536-well; active compounds read low; control for the full effect not named in the record; activity change, % (concentration not given with the values); hit rate 0.49% among 340,000; in the data active means activity change below about -65%; inconclusive means about -30% to -65%; inactive means above about -30%; further: on the % scale 0 is the no-effect control and ±100 the full control effect
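Steps: dispense buffer (Tris pH 8.0, NaCl 300 mM, TCEP 1 mM, BSA, Tween 20); add 5X protein mix (GST-E1A, His-CtBP, 125 nM each); pin 23 nL compound; 2 h at 37 °C, dark; add 5X beads (50 ug/mL); 1 h; read.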
TRPML1 agonist = activates the human TRPML1 channel | Q9GZU1 | TRPML1-expressing cells, Ca2+ dye fluorescence, FDSS; host cell line not named in the record; reference of the full effect not given here | activation, % (test concentration not listed) | hit rate 0.12% among 410,000 | AID 624414; in the data active = activation above about 50%; inconclusive = about 30% to 50%; inactive = below about 30%; further: 0% is about no effect; the text of the record puts the active cut at 80%
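Agonist activity was taken from a 110 s kinetic Ca2+ dye read on the FDSS after pinning compounds onto TRPML1-DL cells. The cells were seeded at 1,500/well with Tet inducer, incubated about 16 h, then dye-loaded at room temperature.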
* marks the source's active call; other numbers are inactive results; ? = inconclusive; / = not tested or not shown; & = joins results of further samples; [ ] = another dose, or the depositor's remark.

entry	smiles	PINK1 expr mod	Six1-Eya2 blk	D2 agonist
1	COC(=O)c1cccc(N2C(=O)C3CC=CCC3C2=O)c1 (configuration not stated)	-0.6%	1	0.1
2	CCCCCCCCN1C(=O)[C@H](CC(=O)NCCCN2CCCC2=O)C[C@@]2(C(=O)OC)CCCCC=C12	0.8%	1	/
3	COC(=O)c1c(-n2c(C)cc(C=O)c2C)sc2c1CCCC2	/	-2	-2.9
4	O=C(Oc1ccc(N(C(=O)c2ccncc2)S(=O)(=O)c2cccs2)cc1)c1ccncc1	1.0%	-3	5.9
5	Cc1ccc(S(=O)(=O)N2CCOCC2)cc1NC(=O)CSc1n[nH]c(N)n1	1.1%	3	-4.0
6	COc1ccc(N(C)C(=O)C2CCN(S(=O)(=O)c3cccc4nonc34)CC2)c(OC)c1	-2.6%	-6	4.3
7	CC(=O)c1ccc(NS(=O)(=O)Cc2ccc(Cl)cc2)cc1	?	2	-2.1
8	CCN(CC)S(=O)(=O)c1cc(NC(=O)CSc2n[nH]c(N)n2)ccc1C	1.2%	9	-1.7
9	CN(C)CCn1c2c(c(SCC(=O)N3CCc4ccccc43)nc1=O)CCCC2	0.4%	-6	-7.9
10	CCOc1cccc(-c2cnc3cccnn23)c1	1.0%	9	-4.7
11	COc1ccc(N2CCN(c3ccnc4cc(Cl)ccc34)CC2)cc1	3.5%	-4	1.3
12	CCCCN1C=C(C(=O)c2ccccc2)C(=O)CC1	-0.5%	-5	-3.4

entry	D2 PAM	CtBP-E1A blk	TRPML1 agonist
1	-1	4	-0.8
2	/	-3	-0.3
3	-14	4	1.7
4	3	/	1.8
5	-3	3	-0.3
6	-4	-1	-0.3
7	4	2	-0.1
8	1	15	1.4
9	-5	-6	-0.4
10	-2	14	-0.8
11	-1	-4	5.2
12	-6	?	-0.3

More records follow.
entry	smiles	PINK1 expr mod	Six1-Eya2 blk	D2 agonist
13	CCOC(=O)c1c(S(=O)(=O)NCC(=O)Nc2cc(C)ccn2)c(C)n(C)c1C	0.5%	8	10
14	COc1cc2nc(C3CCC3)n(NC(=O)c3ccco3)c(=O)c2cc1OC	1.0%	7	-2.6
15	COc1ccc(OC)c(S(=O)(=O)NCC(c2ccco2)N2CCc3ccccc3C2)c1 (configuration not stated)	-0.8%	-11	-4.6
16	CCCCCCC(C)n1[nH]c(=O)c2c(C)cc(=O)[nH]c21 (configuration not stated)	3.6%	?	-4.0
17	COc1ccc(OCC(=O)Nc2ccc(N3CCN(Cc4ccccc4F)CC3)cc2)cc1	-1.3%	1	-2.4
18	Cc1cccc(NC(=O)Cn2nc(-c3cccs3)ccc2=O)c1C	0.2%	-6	-1.2
19	COc1ccc(CC(=O)Nc2ccc(F)c(F)c2F)cc1S(=O)(=O)N1CCOCC1	0.3%	-1	-1.7
20	CCOC(=O)CCc1c(C)n(CC)c2cc(-c3ccccc3OC)nn2c1=O	1.1%	-16	-3.1
21	CCn1c(SCC(=O)NC2CCCCC2)nnc1-c1cccnc1	2.4%	9	-2.3
22	CC(C)(C)c1ccc(-c2ncccc2O)cc1	4.9%	2	0.1
23	Cc1ccc(S(=O)(=O)NCC(=O)Nc2ccc3c(c2)OCO3)cc1	0.0%	-1	0.7
24	O=C(Nc1nc2ccccc2n1CCN1CCCCC1)C1CCCCC1	5.2%	6	-1.5

entry	D2 PAM	CtBP-E1A blk	TRPML1 agonist
13	-15	-15	-0.5
14	-2	-1	0.1
15	6	3	0.5
16	-30	19	-0.7
17	-10	-4	1.1
18	-11	-11	-0.3
19	-3	5	1.6
20	-19	-6	0.6
21	-5	7	0.7
22	4	-10	1.7
23	-4	5	1.1
24	-10	-3	-1.0

Next section
entry	smiles	PINK1 expr mod	Six1-Eya2 blk	D2 agonist
25	O=C(O)C1(c2ccccc2)CCN(S(=O)(=O)c2ccccc2)CC1	1.9%	0	-1.0
26	COC(=O)C1C(c2ccc(OC)cc2)Nc2nnc(C(F)(F)F)n2C1(C)O (configuration not stated)	0.2%	-3	-4.3
27	CC1CC(C)CN(c2cc3c(cc2[N+](=O)[O-])C(=O)N(c2ccccc2)C3=O)C1 (configuration not stated)	13%	-10	4.4
28	CCc1nc(N)c(C#N)c(-c2ccccc2OC)c1C	0.4%	9	-0.4
29	CC1CCC(NS(=O)(=O)c2ccc3c(c2)n(C)c(=O)c(=O)n3C)CC1 (configuration not stated)	1.7%	7	1.0
30	O=C(CSc1ccc(-c2ccncc2)nn1)N1CCN(c2ccccc2)CC1	7.6%	-4	-3.3
31	CCc1ccc(CNCc2ccc(F)cc2)cc1	6.0%	12	-3.0
32	Cc1nn(C)cc1/C=N\NC(=O)c1ccc2c(c1)c(C)c(C)n2Cc1ccccc1	1.2%	-17	0.9
33	Cc1cc(NC(=O)Nc2ccc(Cl)cc2)n(C)n1	0.7%	0	-5.3
34	O=C1NC[C@@H](CCCCN2C[C@H](Cc3ccccc3)N(CCC3CCCCC3)C(=O)C2=O)N(CC2CCCCC2)C1=O	14%	8	/
35	Cc1ccc(S(=O)(=O)Nc2ccc(NC(=O)CN3CCCCC3)cc2)cc1	-2.6%	3	-1.9
36	COc1cc(N(C)C)ccc1C=c1c2ccccc2n2c1cc(-c1ccccc1)[n+]2C	-5.6%	-80*	1.4

entry	D2 PAM	CtBP-E1A blk	TRPML1 agonist
25	-6	-11	0.4
26	-13	-1	-0.7
27	-8	-5	2.4
28	-5	-6	1.7
29	6	0	-0.6
30	-17	0	-0.5
31	-37	-3	-0.8
32	-15	-12	0.1
33	-10	0	0.7
34	/	-4	-0.5
35	-16	7	0.4
36	-25	-80*	0.1

Following part:
entry	smiles	PINK1 expr mod	Six1-Eya2 blk	D2 agonist
37	CC(C)(C)OC(=O)N1CCC(C(=O)Nc2ccc(C(=O)N3CCOCC3)cc2)CC1	0.4%	-2	-3.5
38	O=C(NCCc1ccccc1)c1cnc2sccn2c1=O	-0.1%	3	-3.6
39	Cc1ccc(C)c(S(=O)(=O)NCC(c2ccc3c(c2)OCO3)N2CCOCC2)c1 (configuration not stated)	-4.4%	1	-2.4
40	O=C1[C@@H]2[C@H](C(=O)N1Cc1ccco1)[C@H]1C=C[C@@H]2C1	?	0	2.0
41	Cn1c(N2CCCCC2)nc2c1c(=O)n(Cc1cccc(Br)c1)c(=O)n2C	0.5%	3	-3.3
42	N#Cc1c(-c2ccccc2)ccnc1N1CCOCC1	-1.8%	32	-4.2
43	COc1ccc(OC)c(NC(=O)CCNC(=O)Cn2cnc3ccccc3c2=O)c1	2.1%&0.6%	5	-3.0
44	C/C(=N\NC1=N[C@H]2CS(=O)(=O)C[C@H]2S1)c1ccccc1	0.7%	-18	0.7
45	Cc1ccccc1OCC(=O)OCC(=O)NCc1cccs1	-2.8%	3	-2.1
46	Cc1cccc2nc3c(nc12)-c1ccccc1C3=O	-1.8%	-30	-5.4
47	CCCC(=O)Nc1nnc(-c2cccc(OCC)c2)s1	6.4%	11	-2.5
48	O=C(Nc1cc(S(=O)(=O)N2CCOCC2)ccc1OCC(F)(F)F)C1=COCCO1	3.5%	-1	-2.7

entry	D2 PAM	CtBP-E1A blk	TRPML1 agonist
37	-10	1	0.3
38	-6	3	-1.1
39	1	1	0.7
40	1	8	0.3
41	-13	-14	-0.6
42	-20	-18	-0.6
43	-13	3	-0.7&-0.1
44	-7	-15	0.4
45	-14	3	0.9
46	-24	-21	-0.4
47	-12	6	-0.8
48	23	0	0.1

Next section
entry	smiles	PINK1 expr mod	Six1-Eya2 blk	D2 agonist
49	O=C(COC(=O)c1ccc([N+](=O)[O-])o1)Nc1cccc2ccccc12	-0.1%	-3	13
50	O=C(CCCn1c(SCC(=O)NCC2CCCO2)nc2ccccc2c1=O)NCc1ccccc1 (configuration not stated)	0.3%	2	0.2
51	Cc1cc(Cl)ccc1OCCCC(=O)N1CCN(C(=O)c2ccco2)CC1	14%[38.3 µM]	-1	-0.4
52	O=C(OCC(=O)c1ccc(Cl)s1)c1ccccn1	-0.2%	?	-5.2
53	Cc1ccc(-c2nnc3ccc(SCC(=O)Nc4cc(C)on4)nn23)cc1	2.2%[38.3 µM]	-3	0.7
54	CCCCS(=O)(=O)N1CCC(C(=O)Oc2ccccc2OC)CC1	1.7%	18	0.8
55	Cc1ccc(C(=O)NC(=S)NCc2cccnc2)c(C)c1	2.2%	0	1.7
56	CCCC(=O)Nc1c2c(nn1-c1ccc(OC)cc1)CS(=O)(=O)C2	6.0%[38.3 µM]	2	-0.9
57	COc1ncnc2c1ncn2CCCNCCCN1CCCC1=O	-0.3%	-3	0.3
58	COc1cccc2cc(-c3nnc(SCC(=O)Nc4ccc(NC(C)=O)cc4)n3C)oc12	11%	-7	3.9
59	CCCn1c(SCC(=O)Nc2ccccc2N2CCOCC2)nc2c1c(=O)n(C)c(=O)n2C	0.4%	5	-1.2

entry	D2 PAM	CtBP-E1A blk	TRPML1 agonist
49	5	-1	0.8
50	1	10	-0.8
51	-3	0	0.2
52	-32	2	-0.2
53	-4	-8	-0.6
54	-14	-14	0.0
55	-2	6	2.7
56	1	10	0.1
57	/	4	/
58	9	0	-0.1
59	-13	4	0.0

Source: PubChem BioAssay
